GALR2 agonist = GALR2 (human) receptor agonism. O43603. GALR2-expressing cells, agonist activation read-out. activation, %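 (tested at 5 µM)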. 140,000 tested, 0.48% active. AID 803;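 active means above mean plus 3 SD of all compounds, about 5% in these data, not always enough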;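 further: 0% = vehicle buffer wells and 100% = reference agonist at full effect; tested in CHO reporter cells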
Target sequence (O43603 whole entry, looked up): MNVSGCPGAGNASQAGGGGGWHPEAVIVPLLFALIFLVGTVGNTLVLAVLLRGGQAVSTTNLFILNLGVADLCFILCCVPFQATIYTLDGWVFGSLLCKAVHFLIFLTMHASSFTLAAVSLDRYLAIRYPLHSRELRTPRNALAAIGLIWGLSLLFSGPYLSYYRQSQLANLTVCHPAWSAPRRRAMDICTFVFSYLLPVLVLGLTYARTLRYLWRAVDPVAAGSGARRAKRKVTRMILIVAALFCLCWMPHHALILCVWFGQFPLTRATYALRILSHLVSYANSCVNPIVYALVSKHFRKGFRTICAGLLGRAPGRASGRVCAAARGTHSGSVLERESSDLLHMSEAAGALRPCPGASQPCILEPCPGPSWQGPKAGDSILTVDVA
PKD1 inh = inhibitors of human PKD1 kinase; Q15139; PKD1 kinase fluorescence polarization assay; inhibition, %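 (about 10 µM by stock and volumes)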; 200,000 tested, 0.056% active; AID 797;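 active means inhibition of 50% or more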;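 further: controls were vehicle for no effect and a reference inhibitor for full effect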
HSV replic up = increases HSV replication in cells; HSV replication augmentation in cells, fold increase; maximum fold increase; 220,000 tested, 0.005% active;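 active means peak rise of 1.5-fold or more in the series; tested in PC3 cells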;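 further: first round at 10 µM; read as green reporter fluorescence; hits show the peak of a series up to 25 µM; 1 = signal of infected wells without compound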
Insulin prom inh = TRM-6 insulin promoter activity inhibition; TRM-6 cells (human fetal islet line), insulin promoter-eGFP reporter, imaging; reporter expression induced with tamoxifen; inhibition, % at 2 µM; 130,000 tested, 0.9% active; AID 1273;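 active means inhibition above the mean plus 3 SD, with well images judged a real hit on visual review, cut at about 60% in these data, passing the limit was not always enough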
RGS16-Gao HTS = regulators of human RGS16-Galphao interaction | AID 1441 | O15492+P09471 | binding response (% of control), % at 10 µM | bead-based flow cytometry RGS16-Galphao binding, fluorescence; actives lie on both sides | 220,000 tested, 0.38% active;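 active means below 25% or above 175%, edge rows of some plates excepted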;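 further: Galphao activated by GDP with aluminum fluoride before binding; 100% = wells without compound and 0% = beads without RGS; some results beyond the cut were filed as inactive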
Target sequence (O15492 whole entry, looked up): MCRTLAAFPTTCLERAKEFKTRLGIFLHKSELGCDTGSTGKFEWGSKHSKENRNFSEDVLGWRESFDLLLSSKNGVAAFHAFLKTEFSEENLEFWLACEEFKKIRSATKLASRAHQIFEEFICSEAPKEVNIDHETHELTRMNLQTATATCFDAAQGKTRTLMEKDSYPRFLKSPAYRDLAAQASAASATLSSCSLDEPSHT
Target sequence (P09471 whole entry, looked up): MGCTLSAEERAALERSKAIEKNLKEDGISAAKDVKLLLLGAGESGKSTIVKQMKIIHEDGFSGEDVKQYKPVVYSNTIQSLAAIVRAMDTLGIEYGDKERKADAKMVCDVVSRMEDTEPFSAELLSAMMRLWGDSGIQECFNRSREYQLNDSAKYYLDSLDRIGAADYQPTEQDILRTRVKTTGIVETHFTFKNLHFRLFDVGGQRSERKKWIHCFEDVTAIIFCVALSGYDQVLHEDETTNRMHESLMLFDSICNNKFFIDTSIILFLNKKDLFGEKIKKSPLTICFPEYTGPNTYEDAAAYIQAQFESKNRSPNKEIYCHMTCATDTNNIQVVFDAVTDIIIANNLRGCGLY
Insulin prom inh cell count = further read-out of Insulin prom inh, marked with its call; normalized cell count, %; measured here: cell count, toxicity; reference of the scale not given here;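 cells exposed to compound for 48 h; stained nuclei by imaging scaled within each plate; lower means fewer cells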
HSV replic up primary fold = recorded beside HSV replic up, whose call it bears; fold increase; compound at 10 µM; measured here: primary screen fold increase 10 uM; tested in PC3 cells;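 GFP signal in the first replicate; 1 = infected wells without compound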
* marks the source's active call; other numbers are inactive results; i = inactive; . = no result given; & = joins results of further samples; ! = not confirmed by another sample.

SMILES	GALR2 agonist	PKD1 inh	HSV replic up	HSV replic up primary fold	Insulin prom inh	Insulin prom inh cell count	RGS16-Gao HTS
CN(C)CC(=O)N1CCc2ccccc2C1	.	4	i	0.99	-10	46	90
COC(=O)C1=C(N)OC2=C(C(=O)CC(C)(C)C2)C1c1ccccc1OCC#N (centres undefined)	.	-6	i	0.93	20	94	102
O=C1C2CCCN2C(=O)N1CCCCN1CCN(c2ccc(F)cc2)CC1 (centres undefined)	-0.3	-5	i	0.98	-8	131	103
O=C(CCCCCN1C(=O)CCC1=O)Nc1ccc(Br)cc1F	-3.3	-4	i	1	-12	125	104
CCOC(=O)c1c(NC(=O)C(=O)N/N=C/c2ccc(O)c(OC)c2)sc2c1CCCCC2	0.6	-6	i	0.9	41	132	101
CCN1CCN(C(c2ccccc2)c2sc3nc(C)nn3c2O)CC1 (centres undefined)	.	.	i	0.87	.	.	103
COc1cc2c(N3CCOCC3)cc(O)c(CC(=O)Nc3ccccc3)c2cc1OC	-2.5	-6	i	1.2	6	139	88
COc1cccc(C(=O)/C(C#N)=N/Nc2cccc(-c3ccnc(C)n3)c2)c1	.	.	i	1	.	.	97
O=C(O)c1c(Cl)c(Cl)c(Cl)c(Cl)c1C(=O)N1CCOCC1	0.5	1	i	0.94	-67	89	107
CCC(=O)NC(c1ccc([N+](=O)[O-])cc1)c1c(O)ccc2ccccc12 (centres undefined)	-3.1	-6	i	0.96	-41	86	97
COC(=O)Nc1ccc2c(c1)N(C(=O)CCN1CCOCC1)c1ccccc1S2	-1.2	-7	i	0.99	.	.	76
COC(=O)CNc1ccc2c(c1)OCO2	-3.3	-10	i	1.1	-393	39	111
C[n+]1c2n(c3ccccc31)N=C(c1ccccc1)CS2	-1.5	-4&-9	i	0.97&0.88	31&10	95&140	104&100
CNC(=O)c1cc(C(=O)c2ccccc2C(F)(F)F)c[nH]1	.	0	i	0.97	.	.	99
CCCN1CCC(NC(=S)Nc2ccc(OC)c(OC)c2)CC1	.	-7	i	0.88	.	.	110
O=C(COC(=O)CCC(=O)c1ccc(Cl)cc1)NCc1ccco1	.	-4	i	0.87	.	.	103
CC(C)OC(=O)c1cc2c(=O)[nH]c(C(Cl)(Cl)Cl)nc2o1	.	2	i	0.97	18	70	101
COc1ccc(N2CCN(C(=S)NC(=O)c3cccs3)CC2)c([N+](=O)[O-])c1	.	-2	i	1	.	.	93
CC(OC(=O)c1ccccc1NS(=O)(=O)c1cccc(C(F)(F)F)c1)C(=O)N(C)Cc1ccccc1 (centres undefined)	0.8	-6	i	1.2	.	.	70
CCOC(=O)c1ccc(NC(=O)c2cc(F)c(F)cc2Cl)cc1	.	7	i	0.96	.	.	99
Cc1cc(C)c(C(=O)CN2C(=O)NC3(CCCCCC3)C2=O)cc1C	.	0	i	1.1	.	.	101
Cc1ccc(C(=O)Nc2ccc(Cl)cn2)cc1	-4.1	-11	i	0.98	.	.	109
O=C(O)c1cccc(NC(=O)c2ccc3c(c2)C(=O)N(CC2CCCO2)C3=O)c1 (centres undefined)	-0.4	0	i	1.1	-19	101	98
COc1ccc(/C=C2\CCc3ccccc3C2=O)cc1Cn1cccn1	-1.3	7	i	0.79	-3	85	91
Cc1n[nH]c(C)c1CCC(=O)N/N=C/c1c[nH]c2ccccc12	.	.	i	0.72	.	.	102

Three entries out of the list above, ordered by the value under PKD1 inh, falling:
| SMILES | PKD1 inh |
| --- | --- |
| CN(C)CC(=O)N1CCc2ccccc2C1 | 4 |
| CC(C)OC(=O)c1cc2c(=O)[nH]c(C(Cl)(Cl)Cl)nc2o1 | 2 |
| CNC(=O)c1cc(C(=O)c2ccccc2C(F)(F)F)c[nH]1 | 0 |

New compounds follow.
SMILES	GALR2 agonist	PKD1 inh	HSV replic up	HSV replic up primary fold	Insulin prom inh	Insulin prom inh cell count	RGS16-Gao HTS
Nc1nc(NC(=O)Cc2ccccc2)nn1-c1ccccc1	-2.0	-3	.	.	-48	59	102
CN(Cc1ccccc1)c1nc2c(c(=O)[nH]c(=O)n2C)n1CCOc1ccccc1	3.1	-3	i	0.82	-36	103	104
CCN(CC)CCNS(=O)(=O)c1ccc2[nH]cc(C(=O)O)c(=O)c2c1	-1.1	-6	i	1.2	-5	80	102
CCOCCCN(CCC#N)S(=O)(=O)c1ccc(S(=O)(=O)N2CCCC2)cc1	-3.3	-20	i	0.91	-56	137	99
O=C(CCS(=O)(=O)c1ccc(Br)cc1)NC1CCCC1	-2.6	1	i	0.89	.	.	104
COc1ccccc1NC(=O)NCCCl	-0.5	7	i	0.96	54	101	108
Cc1ccnc(SCC(=O)O)n1	-3.0	-1	i	0.88	3	61	95
O=C1c2cccc([N+](=O)[O-])c2C(=O)N1c1ccccc1	-0.9	-5	i	1.1	.	.	58
COc1ccc(N(C(=O)Cc2cccs2)C(C(=O)NC2CCCCC2)c2cccn2C)cc1OC (centres undefined)	-1.7	1	i	1	-88	96	117
O=C(NCCO)c1nc(NCCO)c2ccccc2n1	0.8	-5	i	0.91	-70	75	104
CC1Cc2ccccc2N1C(=O)C12CCC(C)(C(=O)C1)C2(C)C (centres undefined)	-2.1	-4	i	0.9	95*	105*	102
CCCCSc1nnc(-c2c[nH]c3ccccc23)n1C	-3.3	-9	i	0.9	.	.	102
CCCCN(CC)CCCNC(=O)CS(=O)(=O)Cc1nc(-c2cccc(OC)c2)oc1C	-0.7	-6	i	1.1	-28	96	99
NS(=O)(=O)c1ccc(CCNc2nc(CN3CCCCC3)nc3sc4c(c23)CCC4)cc1	-2.6	-9	i	0.9	12	123	99
O=C(COc1ccc(S(=O)(=O)NC2CCCCC2)cc1Cl)NCc1ccc2c(c1)OCO2	0.1	-8	i	0.99	-100	104	122
O=C(Nc1ccc(Cl)cc1F)c1cc(S(=O)(=O)N2CCCCC2)ccc1F	0.0	-9	i	0.94	-6	138	94
CCOC(=O)Cn1c(=O)oc2ccc(C)cc21	.	-5	i	0.98	-11	123	104
Cn1c(N)c(C#N)c2c(c1=S)CSC(C)(C)C2	-2.5	8	i	0.96	69	124	98
CCCSc1nsc(SCCC)c1C#N	-3.1	-3	i	0.87	-39	27	101
CCC(CO)NCc1ccc(-c2ccccc2)cc1 (centres undefined)	-0.1	0	i	0.95	.	.	108
CCc1ccc(-c2csc3ncn(CC)c(=O)c23)cc1	.	-3	i	0.88	.	.	97
CCOC(=O)c1sc(=NC(=O)COc2ccc(Cl)cc2)n(C)c1C	.	8	i	1	.	.	104
CCOC(=O)N1CCC(NC(=O)C(NS(=O)(=O)c2ccc3c(c2)CCN3C(C)=O)C(C)C)CC1 (centres undefined)	-1.0	-8	.	.	-123	69	103
COc1ccc(-c2nc(N)nc(C(F)(F)F)c2-c2csc(C)n2)c(O)c1	.	.	i	1	.	.	94
CCOc1ccc(NC(=O)c2cccs2)c([N+](=O)[O-])c1	-2.5	0	.	.	13	76	97
SMILES	GALR2 agonist	PKD1 inh	HSV replic up	HSV replic up primary fold	Insulin prom inh	Insulin prom inh cell count	RGS16-Gao HTS
CCOC(=O)c1c(C)[nH]c(C(=O)COC(=O)/C=C/c2ccc3c(c2)OCO3)c1C	4.8	8	i	0.92	.	.	105
COC(=O)c1cc(=O)c2c(C)nc(C(Cl)(Cl)Cl)nc2[nH]1	.	1	i	1	.	.	99
Cn1nc(-c2ccccc2)c(CO)c1Oc1cccc(C(F)(F)F)c1	.	-6	i	0.97	-64	143	102
COc1cccc(CN2CCN(Cc3ccc(C)o3)CC2CCO)c1 (centres undefined)	.	3	i	0.93	.	.	100
OC1C[N+]2(CCCCC2)C1	-0.8	-5	.	.	0	72	105
CC1(C)CC(=O)C=C(NCCCN2CCCC2=O)C1	-3.7	4	i	0.76	30	97	.
COC(=O)C(Cc1cncn1COCc1ccccc1)NC(=O)OC(C)(C)C (centres undefined)	-0.6	-2	i	0.94	.	.	95
CC1CCc2nc(NC(=O)Cc3cccs3)sc2C1 (centres undefined)	-0.1	-6	i	1	44	173	98
Cc1ccc(CSCC(=O)N2CCCC2)cc1	.	-8	i	0.81	-107	129	107
COCc1cc(C)[nH]c(=O)c1C#N	-0.9	-21	i	0.78	.	.	98
Cc1nc(SCC(=O)Nc2cc(Cl)ccc2[N+](=O)[O-])nc(C)c1C	0.0	1	i	1.1	.	.	99
CCOC(=O)N1CCN(C(=O)CSc2ccc3nnc(-c4cccnc4)n3n2)CC1	.	1	i	1.1	.	.	103
COc1cc2c(cc1OC)C(C)N(C(=S)NC(=O)c1ccccc1)CC2 (centres undefined)	.	-3	i	1.1	.	.	104
CC(=O)Nc1nc(Cn2nnc(-c3ccc4c(c3)OCO4)n2)nc(N(C)C)n1	.	8	i	0.95	-14	73	102
COc1ccc(/C=N/NC(=O)Cn2cc(C(F)(F)F)ccc2=O)cc1	.	-6	i	0.97	.	.	98
CSc1nnc(-c2cc(Br)ccc2N=Cc2c(C)[nH]n(-c3ccccc3)c2=O)c(=O)[nH]1	.	-7	i	0.96	.	.	98
O=C(Cn1cc(CCO)nn1)N1CCNCC1	.	2	i	1.1	.	.	122
Nc1cc(N2CCCC2)ccc1[N+](=O)[O-]	.	4	i	0.98	57	87	99
Cc1ccc(Sc2c([N+](=O)[O-])ncn2C)cc1	-1.5	5	i	0.97	.	.	102
N#Cc1ccc(-c2ccc(OCC(=O)NCCc3ccccc3)cc2)cc1	0.6	-5	i	1	.	.	98
c1ccc2[nH]c(-c3ccnc4ccccc34)nc2c1	12*!	-11&-7	i	0.92&0.99	86*!	74*!	97&100
Cc1ccc(C(=O)/C=C\NCc2ccccc2)cc1	-1.8	-4	i	0.98	31	156	100
CCn1ncc(CN2CCN(C(=O)Nc3ccccc3C(=O)OC)CC2)c1C	-2.2	-10	i	0.93	-29	68	100
CCOC(=O)c1sc2nc3c(SCCC(=O)O)cc(C(=O)c4cc(OC)ccc4O)cn3c(=O)c2c1C	.	-6	i	1.1	.	.	102
Cc1c(O)nc2ccccn2c1=O	.	.	i	0.98	.	.	97
SMILES	GALR2 agonist	PKD1 inh	HSV replic up	HSV replic up primary fold	Insulin prom inh	Insulin prom inh cell count	RGS16-Gao HTS
COC(=O)[C@H](Cc1ccccc1)NC(=O)Nc1ccc(C)cc1	-2.9	-2	i	0.76	-31	126	102
CCCCC(=O)N(Cc1ccc2c(c1)OCO2)Cc1nc2ccccc2c(=O)[nH]1	.	-3	i	1	.	.	102
Cc1ccc(S(=O)(=O)N2CCCC2C(=O)OCc2ccco2)cc1 (centres undefined)	-1.4	1	i	0.96	i	51	84
O=C(N/C=C/c1ccco1)OCc1ccccc1	.	-4	i	1.1	.	.	102
CCCc1[nH]nc2c1C(c1ccc(OC(=O)N3CCOCC3)cc1)C(C#N)=C(N)O2 (centres undefined)	-0.4	6	i	1.1	9	144	89
COCC(C)NC(=O)c1cccc(Cl)c1 (centres undefined)	-2.2	-3	i	1	0	97	107
COc1ccc(Cl)cc1NC(=S)NNC(=O)CC(C)C	.	-6	i	0.96	.	.	101
COCCCNC(=S)N1CCN(c2ccc([N+](=O)[O-])cc2)CC1	-0.7	-11	i	1.1	.	.	102
CCNC(=S)NNC(=O)Cc1ccccc1	-2.9	5	i	0.98	10	86	97
CC1=C(C(=O)OC(C)C)C(c2cccs2)NC(=S)N1 (centres undefined)	-0.6	5	i	1.1	.	.	92
O=c1ccc2cc(O)c(O)cc2o1	3.8	-6	i	0.96	48	91	38
CSc1nsc(/C=C/Nc2ccc(C)cc2)c1C#N	1.1	3	i	1.6	-221	102	94
COc1cc(S(=O)(=O)Nc2ccccc2)ccc1N=Cc1c(C)[nH]n(-c2ccc(C)cc2)c1=O	-0.5	-10	i	0.96	41	133	101
O=C(O)c1cc(Nc2nc(N3CCOCC3)nc(N3CCOCC3)n2)ccc1Cl	0.3	-7	i	0.77	-56	125	97
CCOC(=O)C1=C(c2ccccc2)OC(N)=C(C#N)C1c1cccs1 (centres undefined)	-2.5	0	i	0.96	.	.	92
COc1ccc(Cn2c(=S)[nH]c3cc(C(=O)NCc4cccnc4)ccc3c2=O)cc1	.	4	i	0.96	33	82	110
COC(=O)c1ccc2c(c1O)C(=O)c1ccccc1C2=O	-1.8	1	i	0.73	-24	87	99
COc1cc(S(=O)(=O)Nc2ccccc2C)ccc1NC(=O)c1ccncc1	.	2	i	0.84	.	.	101
COC(=O)CSc1nc(C)c(Oc2ccccc2)c(=O)[nH]1	-0.6	4	i	0.98	.	.	97

Assay outcomes as filed in PubChem BioAssay.
